Compound activity deposited in PubChem by National Center for Advancing Translational Sciences (NCATS).
TRPML1 blocker = qHTS for Inhibitors of the Human Mucolipin Transient Receptor Potential 1 (TRPML1). hit rate 0.02% among 390,000. activity change, negative = inhibition, % (test concentration not listed). TRPML1-inducible cells, Ca2+ dye fluorescence, FDSS; stronger effect = lower value; inhibition of EC80 agonist-evoked calcium signal. Mucolipin-1 (Homo sapiens), Q9GZU1. AID 624415, 2012; in the data active means activity change below about -50%; inconclusive means about -30% to -50%; inactive means above about -30%;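 further: stimulus is agonist 54-4 at its EC80 concentration; on the % scale 0 is the no-effect control and ±100 the full control effect; compound concentration not given in the record; the text of the record puts the active cut at -80%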
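Tet-induced TRPML1-DL cells loaded with Ca8 no-wash calcium dye were read kinetically on FDSS. Compound addition was followed by EC80 agonist 54-4 (4 uM final); inhibition was read over 110 s.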
D2 agonist = Beta-Arrestin HTS for Positive Allosteric Modulators of the Human D2 Dopamine Receptor: Agonists | activation, % (concentration not given with the values) | DiscoveRx PathHunter D2 beta-arrestin, luminescence, 90 min; 100% = 57 uM dopamine signal | AID 624465, 2012 | D(2) dopamine receptor (Homo sapiens), P14416 | hit rate 0.084% among 360,000; in the data active = activation above about 40%; inconclusive = about 15% to 40%; inactive = below about 15%; further: compound concentration not given in the record; the text of the record calls up to 30% inactive
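DiscoveRx PathHunter D2 beta-arrestin cells (2,100/well) attached overnight, then compound-stimulated 90 min at 37 C in HBSS/10 mM HEPES/0.1% Tween-20 buffer; beta-galactosidase complementation read by luminescence after 1 h at ambient temperature. Dopamine 57 uM final (EC100) as control.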
PINK1 modulator = A Quantitative High throughput Screen to Identify Chemical Modulators of PINK1 Expression; PINK1 immunofluorescence, high-content cytometry, 24 h; Potency, µM (doses to about 76.6 µM), for inactives: at the highest dose activation (PINK1 increase), actives largely listed as activators; hit rate 0.2% among 410,000; active = well fitted activation curve with a large enough effect; inconclusive = small, poorly fitted or top-dose-only effect; inactive = flat fitted curve, though single readings scatter; cell line not stated here;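 further: potency means the concentration at half of the fitted maximal effect; % of control where 0% means no effect; nearly all actives have a fitted effect of over 65% in size; a mitochondrial uncoupler was the plate control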
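PINK1 protein, normally rapidly degraded, was detected by immunofluorescence after 24 hour compound treatment of a stable cell line. Titration data (5 concentrations) came from laser-scanning cytometry, with CCCP-treated wells as controls.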
TRPML1 ag = qHTS for Agonists of the Human Mucolipin Transient Receptor Potential 1 (TRPML1); TRPML1-expressing cells, Ca2+ dye fluorescence, FDSS; host cell line not named in the record; reference of the full effect not given here; activation, % (concentration not given with the values); Mucolipin-1 (Homo sapiens), Q9GZU1; hit rate 0.12% among 410,000; AID 624414, 2012; in the data active = activation above about 50%; inconclusive = about 30% to 50%; inactive = below about 30%; further: 0% is about no effect; the text of the record puts the active cut at 80%
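TRPML1-DL cells, Tet-induced overnight (~16 h, 37 degrees C), loaded 45-90 min at room temperature with Ca8 no-wash calcium dye plus quencher. FDSS fluorescence: 10 s baseline, compound pin-transfer, 110 s agonist read, then EC80 54-4 (4uM final) and 110 s antagonist read.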
D2 PAM = Beta-Arrestin HTS for Positive Allosteric Modulators of the Human D2 Dopamine Receptor: Potentiators; D(2) dopamine receptor (Homo sapiens), P14416; DiscoveRx D2 beta-arrestin cells, luminescence, 90 min; 100% = 57 uM dopamine signal; potentiation, % (concentration not given with the values); hit rate 0.23% among 360,000; AID 624464, 2012; active = potentiation of 50% or more; inconclusive = 30% to 50%; inactive = 30% or less;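 further: compound concentration not given in the record; tested on top of an EC20 dose of dopamine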
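PathHunter D2 cells, attached overnight at 37 deg C, received compound in DMSO plus dopamine at EC20 (50 nM final) for 90 min at 37 deg C. Beta-arrestin recruitment was read as luminescence after 1 h with detection reagent at ambient temperature.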
Six1-Eya2 blk = qHTS Assay for Inhibitors of the Six1/Eya2 Interaction | Homeobox protein SIX1 (Homo sapiens) + Protein phosphatase EYA2 (Homo sapiens), … | AlphaScreen GST-Six1/His-Eya2 binding, biochemical; stronger effect = lower value; control for the full effect not named in the record | activity change, % (concentration not given with the values) | hit rate 0.56% among 360,000 | AID 651725, 2012; in the data active = activity change below about -65%; inconclusive = about -30% to -65%; inactive = above about -30%; further: on the % scale 0 is the no-effect control and ±100 the full control effect
Target sequence (O00167 whole entry, looked up): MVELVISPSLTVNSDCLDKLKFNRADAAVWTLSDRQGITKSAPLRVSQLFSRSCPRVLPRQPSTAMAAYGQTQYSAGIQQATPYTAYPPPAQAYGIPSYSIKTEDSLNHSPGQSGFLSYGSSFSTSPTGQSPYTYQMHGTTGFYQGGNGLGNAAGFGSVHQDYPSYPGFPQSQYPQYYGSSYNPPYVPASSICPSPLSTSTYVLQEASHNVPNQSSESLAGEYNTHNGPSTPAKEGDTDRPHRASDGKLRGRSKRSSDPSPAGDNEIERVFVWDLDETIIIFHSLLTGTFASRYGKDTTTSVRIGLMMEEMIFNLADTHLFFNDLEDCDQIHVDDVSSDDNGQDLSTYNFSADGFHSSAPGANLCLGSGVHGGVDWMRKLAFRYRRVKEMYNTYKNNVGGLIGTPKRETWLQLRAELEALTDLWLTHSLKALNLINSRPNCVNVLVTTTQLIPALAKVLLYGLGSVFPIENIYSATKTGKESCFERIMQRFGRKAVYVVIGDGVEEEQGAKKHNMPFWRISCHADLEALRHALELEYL
Target sequence (Q15475 whole entry, looked up): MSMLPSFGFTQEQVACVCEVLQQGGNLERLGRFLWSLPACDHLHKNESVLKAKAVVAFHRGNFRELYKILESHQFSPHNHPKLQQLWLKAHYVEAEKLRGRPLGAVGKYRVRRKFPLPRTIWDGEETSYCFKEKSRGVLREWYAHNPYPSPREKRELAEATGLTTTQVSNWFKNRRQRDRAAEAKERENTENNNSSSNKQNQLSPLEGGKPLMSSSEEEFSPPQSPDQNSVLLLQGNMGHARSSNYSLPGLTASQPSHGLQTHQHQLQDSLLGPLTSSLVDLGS
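Homogeneous AlphaScreen proximity assay pairing GST-Six1 with His-tagged Eya2 (added as 5X mix: 250 nM and 500 nM) in 50 mM Tris pH 8.0, 300 mM NaCl, 1 mM TCEP. Glutathione donor and nickel acceptor beads; 1 h, 37 °C, dark.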
* hit, by the source's call; ? = inconclusive; . = not tested or not shown; [ ] = dose if it differs, or a comment.

SMILES	TRPML1 blocker	D2 agonist	PINK1 modulator	TRPML1 ag	D2 PAM	Six1-Eya2 blk
CC(C)(C)OC(=O)COc1cc(O)c2c(=O)cc(-c3ccccc3)oc2c1	-19	-3.9	2.2%	3.7	-7	7
COc1ccc(OC)c(NC(=O)CSC2=NCCS2)c1	12	-1.3	-3.5%	0.7	-9	-8
Cc1cccc(NS(=O)(=O)c2cc3c(cc2C)N(C)CCO3)c1	10	-3.2	5.1%	1.3	-1	-3
O=C(c1ccc(-c2ccccc2Cl)o1)N1CCC1	28	-1.6	-1.3%	-0.6	-5	-14
COc1ccc(C2=CSC3=NCCN23)cc1OC	7	0.3	-1.1%	0.4	-13	4
COc1ccc(/C=C(\CC(=O)O)c2nc3ccccc3s2)cc1O	10	-2.2	0.6%	0.0	-3	7
CC(=O)Nc1ccc(OCC(O)CN2CCN(c3ccc(C)c(Cl)c3)CC2)cc1 (configuration not stated)	-5	2.5	-1.9%[38.3 µM]	0.7	-16	-21
CCOC(=O)N1CCC(NC(=O)c2cc(C(=O)Nc3ccc(S(=O)(=O)N4CCOCC4)cc3)ccc2CO)CC1	20	12	3.3%	1.3	-23	5
N#Cc1ccccc1COc1ccc(/C=C/C(=O)O)cc1	-13	-5.3	0.5%	-0.5	-5	13
COc1ccc2oc(=O)cc(CN3CCN(c4ccccc4F)CC3)c2c1	40	.	2.0%	-0.5	.	.
COc1ccc(OC)c(/C=N/NC(=O)c2cc[n+](CC(=O)c3ccccc3)cc2)c1	-14	-4.8	.	-0.3	8	-17
COc1ccc(C(=O)N(Cc2ccccc2)c2cccc(C)c2)cc1S(=O)(=O)N1CCOCC1	-3	0.8	-2.1%	0.0	2	-9
c1ccc2nc(NN=C3CCCCC3)ccc2c1	15	-12	0.5%	1.1	-29	-4
Cc1cccc(NC(=O)c2cc(NC(=O)C3CCCCC3C(=O)O)ccc2Cl)n1 (configuration not stated)	-14	0.0	-0.9%	0.7	-24	12
O=C(O)CSCc1c(F)cccc1Cl	-10	-8.2	2.6%	-1.1	0	5
COc1ccc(-c2cc3ccc(OC(C)C(=O)O)cc3oc2=O)cc1 (configuration not stated)	-4	-5.7	-0.4%	0.5	-2	1
COc1ccc(C/C(C)=N/NC(=O)c2ccncc2)cc1	-3	-1.4	2.2%	-0.3	-1	0
O=C(CCc1ccccc1)NNC(=O)Nc1ccc(F)c(Cl)c1	-5	-4.5	17%	1.1	-19	1
CCc1cc(C(=O)N2CCN(S(=O)(=O)c3ccccc3F)CC2)sc1C	4	-3.9	-1.4%	1.9	1	-4
CCOC(=O)C1=C(C)NC(=S)NC1C (configuration not stated)	-10	-1.4	-0.8%	0.5	-3	7
COc1ccc(NC(=O)c2ccc(N3C(=O)C4CC=C(C)CC4C3=O)cc2)c(OC)c1 (configuration not stated)	9	-3.5	2.2%	-0.2	-4	-6
CN(C(=O)CSc1nnc(Cc2cccc3ccccc23)n1N)C1CCS(=O)(=O)C1 (configuration not stated)	10	-1.8	-1.1%	5.1	0	-2
C[C@H](O)[C@@H]1C(=O)N2CCc3c([nH]c4ccccc34)[C@@H]2C[C@@H]1N(C)Cc1ccc(Cl)cc1	0	-5.0	3.9%	-0.2	-5	-12
Cc1ccc(CCNC(=O)C(C)n2nc(C)c3c(C)n(-c4ccccc4)nc3c2=O)cc1 (configuration not stated)	-3	-4.4	0.0%	-1.3	-9	2
OCC[C@H]1C[C@H](O)[C@@H](O)[C@@]2(OCc3ccccc32)O1	39	-1.8	-0.5%	0.2	-3	1
Cc1ccc(S(=O)(=O)N2CCN(C(=O)CSc3nnc(C)s3)C2)cc1	8	2.5	0.2%	0.5	2	4
CC1(C)CC(=O)c2c(-c3cccnc3)n[nH]c2C1	9	2.2	-2.5%	-0.3	6	6
CN(C[C@H](Cc1ccccc1)N(C[C@@H](CC1CCCCC1)N(CCc1ccccc1)N=O)N=O)N=O	2	-0.3	2.0%	-0.5	-5	0
O=C(O)c1cccc(Nc2nc(-c3ccc([N+](=O)[O-])cc3)nc3ccccc23)c1	29	-4.2	1.3%	-0.4	-5	1
O=C(NCc1ccccc1)c1csc(-c2cccnc2)n1	8	1.8	-1.0%	-0.5	-9	-4

Part of the list above, comma-delimited:
structure,TRPML1 blocker,D2 agonist,PINK1 modulator,TRPML1 ag,D2 PAM,Six1-Eya2 blk
CN(C[C@H](Cc1ccccc1)N(C[C@@H](CC1CCCCC1)N(CCc1ccccc1)N=O)N=O)N=O,2,-0.3,2.0%,-0.5,-5,0
OCC[C@H]1C[C@H](O)[C@@H](O)[C@@]2(OCc3ccccc32)O1,39,-1.8,-0.5%,0.2,-3,1
C[C@H](O)[C@@H]1C(=O)N2CCc3c([nH]c4ccccc34)[C@@H]2C[C@@H]1N(C)Cc1ccc(Cl)cc1,0,-5.0,3.9%,-0.2,-5,-12
CN(C(=O)CSc1nnc(Cc2cccc3ccccc23)n1N)C1CCS(=O)(=O)C1 (configuration not stated),10,-1.8,-1.1%,5.1,0,-2
O=C(O)c1cccc(Nc2nc(-c3ccc([N+](=O)[O-])cc3)nc3ccccc23)c1,29,-4.2,1.3%,-0.4,-5,1
Cc1ccc(CCNC(=O)C(C)n2nc(C)c3c(C)n(-c4ccccc4)nc3c2=O)cc1 (configuration not stated),-3,-4.4,0.0%,-1.3,-9,2

Later entries.
SMILES	TRPML1 blocker	D2 agonist	PINK1 modulator	TRPML1 ag	D2 PAM	Six1-Eya2 blk
O=C(CC1S/C(=N\S(=O)(=O)c2ccc(F)cc2)N(c2ccccc2)C1=O)Nc1ccccc1 (configuration not stated)	-7	-2.3	-0.7%	-0.1	-11	-1
COc1cccc(N(C(=O)c2ccco2)C(C(=O)NC2CCCC2)c2ccc(N(C)C)cc2)c1 (configuration not stated)	-4	-2.9	-1.3%	-0.1	-20	-12
CC1(OC(=O)c2ccco2)C(=O)C=C2C=C(C3CC3)OC=C2C1=O (configuration not stated)	23	3.2	1.0%	-0.2	5	-4
CCCC(=O)Nc1cccc(-c2nc3ccccc3o2)c1	3	-1.0	0.0%	-0.2	-11	3
O=c1[nH]c2c(n(C3CCCCC3)c1=O)CCC2	-10	-2.5	-1.2%	-0.9	-4	0
Cc1cc(=O)nc2c3ccccc3n(CC(=O)NC3CCCCC3)n12	9	-5.4	-0.5%	2.4	-7	8
Cc1ccc(Cn2nc(C)c(C(=O)NCC(c3ccc(F)cc3)N3CCOCC3)c2Cl)cc1 (configuration not stated)	30	-3.2	0.1%	0.0	-2	-4
Cc1cc(N2CCN(c3ncccn3)CC2)nc2c(C)cccc12	7	4.7	27%	-0.3	-2	5
Cc1ccc(C(=O)N/C(=C\c2cn(C)c3ccccc23)C(=O)N2CCOCC2)cc1	-17	-2.5	0.0%	-0.4	-25	-2
COC(=O)c1ccc2c(=O)n(NC(=O)C(c3ccccc3)c3ccccc3)c(=S)[nH]c2c1	-10	-5.4	11%[38.3 µM]	0.3	-9	0
O=C(NC(=S)Nc1ccccc1N1CCCC1)c1ccccc1[N+](=O)[O-]	4	0.8	4.3%	0.6	0	?
Cc1nc(C(F)(F)F)ccc1C(=O)N1CCCC(C)(C(=O)O)C1 (configuration not stated)	10	-2.8	-0.1%	-0.1	-3	7
Cc1ccc(C(=O)Nc2ccc(C)c(S(=O)(=O)N3CCOCC3)c2)c(C)c1	-15	-3.8	1.5%	0.5	-11	-10
N#Cc1cc2c(nc1SCC(N)=O)CCCCC2	14	0.3	-0.3%	-0.4	0	-9
Cc1cc(C)cc(CN2C(=O)NC3(CCCCCC3)C2=O)c1	-3	0.5	4.1%	2.2	-3	-3
CC(C)CN(CC(C)C)S(=O)(=O)N1CCC(C(=O)NCc2cccnc2)CC1	11	0.8	-0.3%	0.3	-7	-1
O=C(c1cc(-c2ccccc2)on1)N1CCN(C(=O)c2ccco2)CC1	6	2.0	.	0.7	6	0
CC(C)N(CCCNC(=O)C1CCC(CNS(=O)(=O)c2ccccc2)CC1)Cc1ccccc1 (configuration not stated)	3	0.1	-2.3%	-0.1	-5	3
CCCCc1ccc(NC(=O)C(C)CC)cc1 (configuration not stated)	-4	8.5	2.7%	0.6	-6	8
CC(C)COc1ccc(C(=O)OC2CC(C)(C)OCC2CN(C)C)cc1 (configuration not stated)	4	-2.1	5.9%	0.6	-41	0
COc1cc(-c2nnc3n2N=C(c2ccccc2)CS3)cc(OC)c1OC	-8	-3.2	6.8%	3.1	5	5
CCCn1c(CC)nc([N+](=O)[O-])c1Sc1ncn[nH]1	1	-7.4	4.2%	0.3	-14	-1
Cc1ccccc1CNC(=O)C(=O)NCC1CCCN1S(=O)(=O)c1ccccc1 (configuration not stated)	-1	4.2	-0.8%	0.9	-13	2
O=C(CN1C(=O)C2CCCCN2c2ccc(C(=O)N3CCCC3)cc21)NCc1ccccc1 (configuration not stated)	-11	.	-0.9%	0.1	.	.
C=CCn1c(COc2ccc(OC)cc2)nnc1SCn1nnc2ccccc2c1=O	36	-3.7	9.4%	0.4	-3	-4
NS(=O)(=O)OCC(Cc1ccccc1)N1C(=O)c2ccccc2C1=O (configuration not stated)	4	-1.6	0.1%	-0.4	-9	3
COc1ccc(N2CCN(C(=O)C3CCCN(S(=O)(=O)c4ccc(C)cc4)C3)CC2)cc1 (configuration not stated)	-13	-3.3	-0.8%	-0.4	-17	-5
CC(C)OC(=O)/C(=C\C=C\c1ccccc1)NC(=O)c1ccccc1	14	-3.6	1.9%	5.9	-5	4
O=C(O)c1ccc(Oc2nc3ccccc3s2)cc1	13	-1.1	-4.3%	0.0	-15	6
CC1(C)OC(c2ccccc2)=C/C(=C\C=N\NC(=O)c2ccncc2)O1	7	-1.1	3.5%	0.6	-3	-21
O=C1/C(=C/c2cccnc2)SC(=S)N1CCc1ccccc1	3	-1.7	6.6%	4.2	-6	-12
Cc1cccc2nc(=S)n(C(=O)c3ccco3)n12	-13	1.2	-0.3%[38.3 µM]	-0.1	-1	-1
Cc1sc(NC(=O)c2oc3ccccc3c2C)c(C#N)c1C	16	0.1	-0.3%[38.3 µM]	0.3	-4	1
COc1ccc(O)c(-c2nc(N)nc(N)n2)c1	-1	-0.9	0.4%	-0.4	-5	4
CCc1c(C)nc(SCC(=O)N2C(C)CCCC2C)[nH]c1=O (configuration not stated)	3	-1.6	-1.5%	0.2	-1	-1
Cc1ccc(-n2c(=O)c3ccc(C(=O)NCc4ccccc4Cl)cc3n(CC(=O)Nc3ccc(C)cc3C)c2=O)cc1	-13	.	0.9%	0.8	.	.
CCOC(=O)C1C(c2cccs2)NC(=O)N(C)C1(O)C(F)(F)F (configuration not stated)	-4	-0.3	1.2%	-0.5	-8	9
